Source: PubChem BioAssay (Sanford-Burnham Center for Chemical Genomics)
HNF4A DNA FP: change in binding of human HNF4 alpha to DNA. HNF4a-FITC DNA binding, fluorescence polarization, 1 h. P41235. AID 1224865. hit rate 0.3% among 360,000. activity change, % at 10 µM; in the data active = activity change above about 30%, passing the limit was not always enough;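 also: controls were the assay level and a saturating level of protein; the project sought stronger binding though the title names inhibitors; some compounds called inactive have numbers as strong as hits; positive values seem to mean higher polarization but the record does not say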
Target sequence (P41235 whole entry, looked up): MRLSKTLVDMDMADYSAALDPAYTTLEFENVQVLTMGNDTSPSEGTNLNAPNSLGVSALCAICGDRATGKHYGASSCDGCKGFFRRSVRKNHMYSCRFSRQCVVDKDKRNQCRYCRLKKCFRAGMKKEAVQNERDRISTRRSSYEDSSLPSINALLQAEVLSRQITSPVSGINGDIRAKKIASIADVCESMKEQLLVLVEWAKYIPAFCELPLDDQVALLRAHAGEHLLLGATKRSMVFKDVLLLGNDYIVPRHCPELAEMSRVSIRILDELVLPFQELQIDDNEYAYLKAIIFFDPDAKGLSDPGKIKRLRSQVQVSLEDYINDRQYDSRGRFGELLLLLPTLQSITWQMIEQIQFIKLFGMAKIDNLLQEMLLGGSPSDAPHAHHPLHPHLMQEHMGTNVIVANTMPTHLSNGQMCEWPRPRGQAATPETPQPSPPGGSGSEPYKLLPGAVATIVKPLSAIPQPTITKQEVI
* hit, by the source's call. This is a subset. The share of hits here may be higher or lower than overall.

SMILES	HNF4A DNA FP
COc1ccc(C(O)c2nc(-c3ccccc3C)cs2)cc1 (stereo unspecified)	2.5
CCCCNC(=O)C1(C)CCN1C(=O)c1ccc2sccc2c1 (stereo unspecified)	-1.2
CC(=O)Nc1cccc(-c2cccc3nccn23)c1	4.0
CCCNC(=O)c1cc(C2CCCCN2C(=O)OCC(C)C)on1 (stereo unspecified)	1.4
CCCCn1nnnc1C(c1cccc2ccccc12)N1CCN(C/C=C/c2ccccc2)CC1 (stereo unspecified)	1.8
COCC(=O)N[C@H]1CC[C@@H](CC(=O)NCc2ccccc2OC)O[C@@H]1CO	-2.2
Cc1ccc(C=C(C#N)C(=O)c2ccccc2)cc1	2.7
c1ccc(CNc2c(C3CCNCC3)nc3scc(-c4ccccc4)n23)cc1	2.7
C[C@H](O)[C@@H]1CN2CCc3c([nH]c4ccccc34)[C@@H]2C[C@@H]1N(C)C(=S)NCCc1ccccc1	-119
COc1ccc2nc(-c3ccccn3)ccc2c1	-0.7
O=C(Nc1ccc(F)cc1)C(c1ccncc1)N1CCN(CC(=O)N2CCCC2)CC1 (stereo unspecified)	3.4
COc1cccc(C(C)(O)c2nc(-c3ccc(Cl)cc3)cs2)c1 (stereo unspecified)	0.3

Pulled one by one from above:
SMILES	HNF4A DNA FP
CCCNC(=O)c1cc(C2CCCCN2C(=O)OCC(C)C)on1 (stereo unspecified)	1.4
COCC(=O)N[C@H]1CC[C@@H](CC(=O)NCc2ccccc2OC)O[C@@H]1CO	-2.2
O=C(Nc1ccc(F)cc1)C(c1ccncc1)N1CCN(CC(=O)N2CCCC2)CC1 (stereo unspecified)	3.4

(further entries)
SMILES	HNF4A DNA FP
OC[C@@H]1CN(Cc2ccncc2)C[C@H](n2cnc3c(NC4CC4)ncnc32)O1	-3.6
CCNC(=O)C1(C)CCCN(Cc2csc(-c3ccc(Cl)cc3)n2)C1 (stereo unspecified)	-1.1
COc1ccc(OC)c(NC(=O)C2(C)CCN2C(=O)CCC2CCCC2)c1 (stereo unspecified)	-5.3
Cc1cc(C)c(CN2CCN(C(=O)CC[C@H]3O[C@@H](n4ccc(=O)[nH]c4=O)[C@H](O)[C@@H]3O)CC2)c(C)c1	-1.0
CN(Cc1ccc(Cl)cc1)C(CCc1ccccc1)C(=O)NC1CCCCC1 (stereo unspecified)	0.6
COc1ccc(-c2csc(C(C)(O)c3ccccc3)n2)cc1 (stereo unspecified)	-0.2
Cc1ccccc1S(=O)(=O)NC(=O)C1(C)CCN1C(=O)C1(c2ccccc2)CC1 (stereo unspecified)	5.8
CC1(C(=O)Nc2cccc3ncccc23)CCN1C(=O)CCc1ccccc1 (stereo unspecified)	0.3
CNc1ncnc2c1ncn2[C@H]1CN(Cc2ccc(-c3ccccc3)cc2)C[C@@H](CO)O1	-4.9
CNc1cccc(-c2ccc(C(C)=O)s2)n1	1.3
O=C1N(c2ccccc2)c2ccccc2[C@]12C[C@H](O)CO2	2.9
CC(C)C[C@H]1CN([C@@H](CC(C)C)CN2CCCC2CN2C(=S)NC[C@@H]2Cc2ccccc2)C(=S)N1CC1CCCCC1 (stereo partly specified)	3.7
CC(C)(C)NC(=O)C1c2ccccc2OCC(=O)N1C1CC1 (stereo unspecified)	-1.0
O=[N+]([O-])c1ccc(Br)c(CN2CCN(c3ncc(Cc4ccccc4)cn3)CC2)c1	1.7
O=[N+]([O-])c1ccccc1N=Nc1ccc(O)cc1O	-4.8
Cc1ccc(-c2nc3ccc(Br)cn3c2Cc2ccccc2C(F)(F)F)cc1	12
COc1ccccc1N1CCN(C2C(=O)Nc3ccccc3-n3nnnc32)CC1 (stereo unspecified)	-2.2
Cc1cccc(COC[C@H](Cc2ccccc2)N2CCN(C(=O)c3cccc(Cl)c3)CCC2=O)c1	0.5
CCCN(CCC)Cc1cc(=O)oc2cc(C)c(C)cc12	-2.2
CCCCCNC(=O)C(c1ccncc1)n1c(=O)c(-c2cc3ccccc3[nH]2)nc2ccccc21 (stereo unspecified)	0.0
Cc1ccc(N2CCN(C(C(=O)Nc3c(C)cccc3C)c3cccc(F)c3)CC2)cc1 (stereo unspecified)	-2.0
COc1ccc(C(=O)c2[nH]c(N)c(C(=O)NCCc3c[nH]c4ccccc34)c2-c2ccc(OC)c(OC)c2)cc1	1.1
Cc1noc(C)c1S(=O)(=O)NC(=O)C1(C)CCN1C(=O)c1ccc(C2CCCCC2)cc1 (stereo unspecified)	-2.4
OC[C@@H]1CN(CCN2CCOCC2)C[C@H](n2cnc3c(NC4CCCC4)ncnc32)O1	-1.7
CC1(C(=O)NS(=O)(=O)c2cccc(OC(F)F)c2)CCN1C(=O)Cc1ccsc1 (stereo unspecified)	-0.2
OC[C@@H]1CN(CCc2ccccc2)C[C@H](n2cnc3c(NCc4ccc(F)cc4)ncnc32)O1	3.4
Cc1ccc(C)c(S(=O)(=O)Nc2ccc(C(=O)N3CCOCC3)cc2)c1	3.2
COc1ccc(OC)c(NC(=O)C2(C)CCN2Cc2ccc(SC)cc2)c1 (stereo unspecified)	-2.2
COc1ccc(-c2ccc3nncn3c2)cn1	4.9
CC(=O)c1ccc(-c2cnc3c(NC=O)cc(-c4cccc(C(=O)N(C)C)c4)cn23)cc1	2.5
Cc1cc2nc(C(C)(C)C)c(Cc3ccccc3C(F)(F)F)n2c(C)c1Br	1.8
CC[C@@H]1Cc2[nH][nH]c(=O)c2[C@H](c2ccc(Cl)cc2)O1	-3.6
CCCNC(=O)C1(C)CCN(C(=O)c2cc(F)cc(F)c2)C1 (stereo unspecified)	0.0
O=C(N1CCOCC1)C12OC3CC(CC(C3)O1)O2	3.9
CCOC(=O)C1=C(COC(=O)/C=C/c2ccc(F)cc2)NC(=O)NC1C (stereo unspecified)	-1.3
Nc1nc2ncccn2c1-c1ccc(C(F)(F)F)cc1	2.6
CC1(C)OC(=O)C2=C(C[C@@H](C3CCCCC3)O[C@H]2c2ccc(F)cc2)O1	-2.4
Cc1nc(NC(=O)C(C)(C)C)sc1C(=O)Cn1cc(CCCC#N)nn1	1.0
CC(=O)Nc1ccc(NC(=O)C2(C)Cc3c(-c4cccc(C(N)=O)c4)ccnc3O2)cc1 (stereo unspecified)	-0.3
O=C(Nc1ccc2c(c1)OCCO2)C1c2ccccc2OCC(=O)N1CCCN1CCOCC1 (stereo unspecified)	1.1
CCCS(=O)(=O)NC(=O)C1(C)CCN(C(=O)C2(c3ccc(Cl)cc3)CCCC2)C1 (stereo unspecified)	-6.2
COCCn1c(SCC(=O)Nc2ccc3c(c2)OCCO3)nc2ccccc2c1=O	-1.1
Cc1ccc2cc(NC(=O)C3(C)CCN3C(C)C)ccc2n1 (stereo unspecified)	-1.7
Cc1cc(Br)cn2c(Cc3ccccc3)c(-c3ccccc3)nc12	-0.7
COc1ccccc1-c1cc2nc(-c3ccccc3)cc(N3CCN(C(=O)c4ccoc4)CC3)n2n1	3.7
CCCCN(C=O)c1c(CC)nc2c(OCC3CCCCC3)cccn12	-4.1
COc1ccc(CC(N)c2csc(NC(=O)Nc3ccccc3Cc3ccccc3)n2)cc1 (stereo unspecified)	9.1
CCCCC[C@H](C)N1C[C@@H](COCc2ccccc2)Oc2cc(N3CCC[C@@H]3COC)ccc2S1(=O)=O	-2.1
CCc1nc2ccc(C(=O)NCCc3ccccn3)cn2c1N(C)Cc1cccs1	0.7
CCc1nc2c(OC)cccn2c1N(C)C(=O)c1ccccc1F	3.1
CC(=O)OC[C@@H]1CN(Cc2cccc(C(F)(F)F)c2)C[C@H](n2cnc3c(NCc4ccco4)ncnc32)O1	1.9
COC(=O)c1ccc2c(c1)S(=O)(=O)NC2C (stereo unspecified)	0.5
CC(C)NC(=O)N(C)C[C@@H]1OCCCC[C@@H](C)Oc2ccc(NC(=O)Nc3ccc(F)cc3)cc2C(=O)N([C@H](C)CO)C[C@@H]1C	4.7
Cc1ccc(S(=O)(=O)N2CCCCC2)cc1NC(=O)c1ccc(=O)[nH]c1	-3.6
O=C(NCc1cccnc1)c1cc(C2CCCN(S(=O)(=O)c3ccccc3)C2)on1 (stereo unspecified)	-0.4
CCOC(=O)N(C)c1c(CC)nc2c(OCc3cc(Cl)cc(Cl)c3)cccn12	-0.7
O=C(c1ncn2c1c(=O)[nH]c1ccccc12)N1CCc2ccccc2C1	2.2
CNC(=O)C[C@@H]1C(=O)N(CCc2ccccc2)CC1(C)C	0.8
Cc1ccc(F)c(S(=O)(=O)NC(=O)C2(C)CCN2C(=O)CC2CCCCC2)c1 (stereo unspecified)	-0.7
CC(C)c1ccc(CN2CCC2(C)C(=O)Nc2ccc3c(c2)OCO3)cc1 (stereo unspecified)	1.1
Further structures.
SMILES	HNF4A DNA FP
CCc1nc2c(OCc3cccc(Cl)c3)cccn2c1N(C)C(=O)Nc1ccccc1OC	-0.1
COC(=O)[C@H](Cc1ccccc1)NC(=O)/C=C/[C@H]1O[C@@H](n2ccc(=O)[nH]c2=O)[C@H](O)[C@@H]1O	1.0
CC1(Cc2cc(Cl)ccc2C(F)(F)F)C(=O)Nc2ccc(S(=O)(=O)NC3CCCCC3)cc21 (stereo unspecified)	0.0
CCCC(=O)Nc1c(-c2ccccc2)[nH][nH]c1=O	5.4
C#CC(C)OCC1CNC(=S)O1 (stereo unspecified)	-4.5
N#Cc1ccc(C(C(=O)NCc2ccccc2)n2c(=O)c(-c3cc4ccccc4[nH]3)nc3ccccc32)cc1 (stereo unspecified)	3.6
CC(=O)Nc1cccc(-c2csc(C(O)c3ccccc3)n2)c1 (stereo unspecified)	3.6
CCCNC(=O)C1(C)CCCN(C(=O)Cc2ccc(OC)cc2)C1 (stereo unspecified)	-3.4
OC(Cc1ccccc1)c1ncc(-c2ccc3ccccc3c2)[nH]1 (stereo unspecified)	1.2
CCNC(=O)C1(C)CCCN(CC(=O)c2ccccc2OC)C1 (stereo unspecified)	4.7
O=C(Nc1ccc(Cl)cc1)c1csc([C@H]2C[C@H](O)[C@@H](CO)O2)n1	-4.8
O=C1Nc2ccccc2C(=O)N(Cc2ccccc2)C1C(=O)NC1CC1 (stereo unspecified)	2.4
CCOC(=O)C1(C)CCN1C(=O)c1cccnc1Oc1ccccc1 (stereo unspecified)	0.9
Cc1cc(Br)cn2c(Cc3ccccc3)c(-c3ccc(Cl)cc3)nc12	6.6
NC(COCc1ccccc1)c1csc(Nc2ccc(C(=O)NCCO)cc2)n1 (stereo unspecified)	-0.5
CC1(Cc2ccccc2C#N)C(=O)Nc2ccc(-c3ccc4[nH]ccc4c3)cc21 (stereo unspecified)	-0.7
Cc1cc2nc(C(C)(C)C)c(Cc3ccccc3)n2c(C)c1Br	2.4
C[C@@H](c1ccccc1)N1C[C@@H](COCc2ccccc2)Oc2cc(N3CCC[C@@H]3CO)ccc2S1(=O)=O	7.0
CC(C)C[C@H]1CN(CCCC[C@H]2CNC(=O)C(=O)N2CCc2ccc(O)cc2)C(=O)C(=O)N1CCc1ccccc1	0.8
NC(COCc1ccccc1)c1csc(Nc2ccc(C(F)(F)F)cn2)n1 (stereo unspecified)	5.1
CCOC(=O)[C@]12CCCC=C1N(Cc1ccccc1)C(=O)[C@H](CC(=O)N1CCN(C(=O)c3ccco3)CC1)C2	-1.0
Clc1ccc(-c2nc3c4ccccc4ccn3c2Cc2ccsc2)cc1	2.3
CCOC1=C2CN(S(=O)(=O)c3ccc(C)cc3)C(c3cccc(Cl)c3)CC2NC(c2ccccc2)C1 (stereo unspecified)	-0.2
Cc1ccsc1C(=O)N1CCC1(C)C(=O)NCCC#N (stereo unspecified)	4.1
O=C(OCC(=O)N1CCCCCC1)c1cc(S(=O)(=O)N2CCOCC2)ccc1F	-1.7
CC(=O)NCCNc1nc2cc(-c3ccccc3C)sc2c(=O)n1C	0.6
COc1cccc(C2=Cc3ccc(F)cc3C(CC(C)=O)N2c2ccc(-c3cc(OC)c(OC)c(OC)c3)cc2)c1 (stereo unspecified)	2.9
COc1ccc(C(C)(NC(C)=O)c2nc(-c3cccc(F)c3)cs2)cc1 (stereo unspecified)	0.2
Cc1ccc(CN2C(=O)C(F)(F)Oc3ccc(C)cc32)cc1	-1.2

A section from the list above, for reference:
SMILES	HNF4A DNA FP
O=C(Nc1ccc(Cl)cc1)c1csc([C@H]2C[C@H](O)[C@@H](CO)O2)n1	-4.8
O=C1Nc2ccccc2C(=O)N(Cc2ccccc2)C1C(=O)NC1CC1 (stereo unspecified)	2.4
CCOC(=O)C1(C)CCN1C(=O)c1cccnc1Oc1ccccc1 (stereo unspecified)	0.9
Cc1cc(Br)cn2c(Cc3ccccc3)c(-c3ccc(Cl)cc3)nc12	6.6
NC(COCc1ccccc1)c1csc(Nc2ccc(C(=O)NCCO)cc2)n1 (stereo unspecified)	-0.5
CC1(Cc2ccccc2C#N)C(=O)Nc2ccc(-c3ccc4[nH]ccc4c3)cc21 (stereo unspecified)	-0.7
Cc1cc2nc(C(C)(C)C)c(Cc3ccccc3)n2c(C)c1Br	2.4
C[C@@H](c1ccccc1)N1C[C@@H](COCc2ccccc2)Oc2cc(N3CCC[C@@H]3CO)ccc2S1(=O)=O	7.0
CC(C)C[C@H]1CN(CCCC[C@H]2CNC(=O)C(=O)N2CCc2ccc(O)cc2)C(=O)C(=O)N1CCc1ccccc1	0.8
NC(COCc1ccccc1)c1csc(Nc2ccc(C(F)(F)F)cn2)n1 (stereo unspecified)	5.1
CCOC(=O)[C@]12CCCC=C1N(Cc1ccccc1)C(=O)[C@H](CC(=O)N1CCN(C(=O)c3ccco3)CC1)C2	-1.0
Clc1ccc(-c2nc3c4ccccc4ccn3c2Cc2ccsc2)cc1	2.3
CCOC1=C2CN(S(=O)(=O)c3ccc(C)cc3)C(c3cccc(Cl)c3)CC2NC(c2ccccc2)C1 (stereo unspecified)	-0.2
Cc1ccsc1C(=O)N1CCC1(C)C(=O)NCCC#N (stereo unspecified)	4.1
O=C(OCC(=O)N1CCCCCC1)c1cc(S(=O)(=O)N2CCOCC2)ccc1F	-1.7
CC(=O)NCCNc1nc2cc(-c3ccccc3C)sc2c(=O)n1C	0.6
COc1cccc(C2=Cc3ccc(F)cc3C(CC(C)=O)N2c2ccc(-c3cc(OC)c(OC)c(OC)c3)cc2)c1 (stereo unspecified)	2.9
COc1ccc(C(C)(NC(C)=O)c2nc(-c3cccc(F)c3)cs2)cc1 (stereo unspecified)	0.2
Cc1ccc(CN2C(=O)C(F)(F)Oc3ccc(C)cc32)cc1	-1.2
